High-throughput results: PubChem BioAssay, National Center for Advancing Translational Sciences (NCATS)
HPGD block: inhibitors of human 15-hydroxyprostaglandin dehydrogenase (HPGD); P15428; AID 894; Potency, µM, for the others: at the highest dose activity change, negative = inhibition, most hits filed as inhibitors; 4.3% of 150,000 active; purified HPGD, NADH fluorescence kinetic, PGE2 substrate; active = well fitted inhibition curve with a large enough effect (not every such curve was filed as active); inconclusive = small, poorly fitted or top-dose-only effect, or another doubt; inactive = no such curve, though single readings can be large or run the other way;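 further: top concentration of the series not given in the record; plate controls included wells without enzyme; inactives centre near -10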
Target sequence (P15428 whole entry, looked up): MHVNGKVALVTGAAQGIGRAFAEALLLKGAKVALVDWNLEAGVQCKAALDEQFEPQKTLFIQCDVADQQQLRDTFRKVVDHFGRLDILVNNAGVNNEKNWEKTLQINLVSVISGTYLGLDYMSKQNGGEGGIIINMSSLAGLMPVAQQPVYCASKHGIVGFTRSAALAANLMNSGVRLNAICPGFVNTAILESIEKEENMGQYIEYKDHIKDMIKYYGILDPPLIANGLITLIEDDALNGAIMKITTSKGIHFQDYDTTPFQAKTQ
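20 nM HPGD preincubated 15 min at room temperature with compound in 50 mM Tris-HCl pH 8, 0.01% Tween 20. Started with 1 mM NAD+ and 30 uM prostaglandin E2; NADH fluorescence (360/450 nm) read 5 times over 30-s intervals, last minus first.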
The depositor's hits bear a star; ? = inconclusive; & = joins results of further samples. On the % scale 0 is the no-effect control and ±100 the full control effect; potency means the concentration at half of the fitted maximal effect.

HPGD block | compound
-30.4% | CCOC(=O)c1c(C)[nH]c(C(=O)/C(C#N)=C/c2ccc(OC)c(OC)c2)c1C
-19.5% | Cc1ccc2cccc(OCC(=O)NCc3ccco3)c2n1
-0.6% | FC(F)(F)c1ccc(-c2noc(-c3ccccc3)c2I)cc1
-15.7% | Cn1c(SCc2ccccc2)nnc1-c1ccc2c(c1)OCO2
-6.8% | CC1CN(C(=O)c2cccc(COc3ccc(Br)cc3)c2)CC(C)O1 (configuration not stated)
-3.9% | C[C@@H](CSC(=N)N)C(N)=O
-25.4% | CC(C)(C)NC(=O)/C=C/c1cccc(C(F)(F)F)c1
-1.0% | COC1C(O)C(O)C(O)C(O)C1O (configuration not stated)
-13.3% | COC(=O)N1CCC2(CCCN(c3ncccn3)C2)CC1
-11.2% | O=C(CSc1nnc(-c2ccccc2)n1Cc1ccco1)Nc1ccc(S(=O)(=O)N2CCCC2)cc1
0.8% | Cc1cccc(NC(=S)NNC(=O)c2csc3c2CCCC3)c1
-13.3% | CCc1cc2c(NCCC(=O)O)ncnc2s1
-12.6% | O=C(Nc1ccc(N2CCCCC2)c(Cl)c1)c1cccnc1
-11.9% | COC(=O)c1ccc(C2c3c(oc4ccc(F)cc4c3=O)C(=O)N2CCO)cc1 (configuration not stated)
-13.7% | Cc1ccc2c(c1)N(Cc1cccc(Cl)c1)C(=O)c1cccnc1O2
-4.6% | COc1cc(C2/C(=C(/O)c3ccc(OCC(C)C)cc3)C(=O)C(=O)N2CCN(C)C)ccc1O (configuration not stated)
-9.8% | CC(C)c1onc(C(=O)NCc2ccc(F)cc2)c1[N+](=O)[O-]
-0.1% | CC(=O)N1CC2(CC(=O)OC(C)C)CN(C(C)=O)CC(CC(=O)OC(C)C)(C1)C2=O
? | CCNc1ccc2c(Cl)cc(=O)oc2c1
-22.1% | CCN(CC)S(=O)(=O)c1ccc(Cl)c(NC(=O)c2ccccc2C)c1
-3.5% | C=CCOC(=O)N[C@@H](c1ccccc1)[C@@H](C)[N+](=O)[O-]
-4.3% | O=C(NCCc1ccccc1)C1CCN(Cc2ccccc2F)CC1
0.0% | CCc1nc(SCc2cccnc2)c2c(=O)n(C)c(=O)n(C)c2n1
0.4% | CCOc1ccc2nc(SC(C)C(N)=O)[nH]c2c1 (configuration not stated)
-22.1% | CCSc1ncc(C)cc1[N+](=O)[O-]
12.6µM* | COc1ccc(-c2[nH]nc3c2C(c2ccoc2)C(C#N)=C(N)O3)cc1 (configuration not stated)
-5.0% | CCOc1ncccc1C(=O)Nc1cccc(C(=O)Nc2cccc(S(=O)(=O)CCO)c2)c1
? | Cc1oc(-c2ccccc2)nc1CS(=O)CC(=O)N1CCc2ccccc2C1 (configuration not stated)
? | Cc1ccc(-c2nc3ncccc3o2)cc1NC(=O)COc1ccccc1
7.94µM* | Cc1ccc2nc(SCC(=O)NCc3ccco3)c(C#N)cc2c1
-9.9% | O=C(c1ccco1)N1CCN(C(c2ccccc2F)c2nnnn2CC2CCCO2)CC1 (configuration not stated)
? | O=C(CSc1nnc(-c2ccccc2O)o1)Oc1ccc(OCc2ccccc2)cc1
-18.5% | Cc1cc(N2CCOCC2)nc(SCC(=O)c2ccccc2)n1
-13.1% | Cc1cc(C(=O)N2CCC(Cc3ccccc3)CC2)ccc1[N+](=O)[O-]
-9.7% | CCN1C(=O)N[C@@H](CCc2ccccc2)[C@@H](C(=O)OC)[C@H]1C
-10.3% | O=C(Cc1c[nH]c2ccccc12)N/N=C/c1ccc(F)cc1
-10.0% | CC(=O)Nc1ccc(S(=O)(=O)N2CCSC2c2ccc(C)cc2)cc1 (configuration not stated)
-15.1% | COC(=O)c1[nH]c2cccc(C)c2c1NC(=O)CN1CCN(c2ccccc2OC)CC1
4.1% | O=C(COc1ccccc1)N1CCN(c2ccccc2)CC1
-9.0% | CCCN1C(=O)/C(=C2\SC(N3CCCCC3)=NC2=O)c2ccccc21
? | CSc1ccc(/C=C/c2cc(=O)c3ccccc3[nH]2)cc1
-5.5% | NC(=O)CNC(=O)[C@@H]1CC2(CC(c3cccc(Br)c3)=NO2)CN1C(=O)c1ccc(Br)cc1 (some centres not stated)
-13.3% | CCn1c(C)cs/c1=N\C(=S)Nc1ccccc1C
-8.8%&-5.0%&-3.8% | N=C(N)SCCN
-18.5% | CC1(C)C=C(c2ccc(C=O)s2)CC(C)(C)N1C=O
-28.5% | CCn1c(SCC(=O)Nc2ccc(S(=O)(=O)Nc3onc(C)c3C)cc2)nnc1-c1ccccc1
-12.9% | C=CCOC(=O)N[C@H](/C(C(=O)OC)=C(\C)NCc1ccccc1)c1ccc(C)cc1
-13.8% | O=c1c2ccccc2nc(/C=C/c2ccc(O)cc2)n1CCc1ccccc1
-11.3% | CCOC(=O)N1CCN(C(=O)CC(C(=O)N2CCc3ccccc32)n2ccnc2)CC1 (configuration not stated)
5.3% | Cc1ccc(-c2csc3ncnc(NCCN4CCOCC4)c23)cc1

Continuation:
HPGD block | compound
-9.3% | Cc1c(-c2ccc(F)cc2)[n+](=O)c(-c2ccc(F)cc2)c(C)n1[O-]
-6.8% | CCCC(=O)Nc1cc(C)c(NC(=O)C23CC4CC(CC(C4)C2)C3)cn1
? | O=C1OCCC1Sc1nnc(-c2ccc(O)cc2)o1 (configuration not stated)
-3.2% | COc1cccc(OCC(=O)NNC(=O)Cc2cccs2)c1
-7.8% | CC(CCc1ccc(O)cc1)N(C)CCc1ccccc1 (configuration not stated)
-13.6% | CC(C)CCNC(=O)c1cccc(Cl)c1
? | CC(=O)Nc1ccc(S(=O)(=O)Nc2nc3ccccc3nc2Nc2ccc3ccccc3c2)cc1
1.5% | CCN(CC)CCN(C)C1CCC(c2ccccc2)CC1 (configuration not stated)
-9.7% | COc1ccc(-c2csc(N(CCc3ccccc3)C(=O)COc3ccccc3)n2)cc1
-6.4% | c1cc2c(cc1C1CCCCC1)c1c3n2CCN=C3CCC1
-28.7% | Cc1cc2nc(SCCOC(=O)Nc3cccc(Cl)c3)nc(C)c2cc1C
-3.0% | O=C(Nc1cccnc1)c1cccnc1
0.4% | O=C(NC1CCSC1=O)c1ccc(Oc2ccc(F)cc2)nc1 (configuration not stated)
-0.7% | COc1ccc(OC)c(N(CC(=O)NCc2ccncc2)S(C)(=O)=O)c1
-4.9% | CCNc1nc(NCC)n2c(SC(C(=O)Nc3cc(C)ccc3C)c3ccccc3)nnc2n1 (configuration not stated)
-7.6% | CC1(C)c2ccccc2N2CCC(=O)NC21/C=C/c1ccco1 (configuration not stated)
-12.5% | COc1ccc(/C=N/NC(=O)CN(C2=NS(=O)(=O)c3ccccc32)c2ccccc2)cc1OC
-16.4% | COC(=O)Cc1cc(=O)n(-c2nc3ccccc3s2)[nH]1
-2.9% | CCOC(=O)Cn1nnnc1CN(Cc1cccs1)Cc1cc2cc(C)ccc2[nH]c1=O
-6.5% | CC(Sc1nnc(-c2ccc(Cl)cc2Cl)n1Cc1ccccc1)C(=O)Nc1nccs1 (configuration not stated)
-6.1% | CC(C)CN1CCC2(CC1)CCN(C(=O)c1cccn1C)CC2
-0.7% | Cc1ccc(N2C(=O)C3CCC(c4ccccc4)CC3C2=O)cc1 (configuration not stated)
-1.5% | COc1ccc(NC(=O)CC2C(=O)N(c3ccc(OC)cc3)C(=O)N2CCN2CCN(C)CC2)cc1 (configuration not stated)
-1.5% | COc1ccc(NC(=O)Cn2nnc(C(=O)NCc3ccccc3OC)c2N)cc1Cl
-16.5% | O=C(NCCCNc1ccc(C(F)(F)F)cc1[N+](=O)[O-])c1ccc(F)cc1
-2.1% | Cn1ccnc1SCC(=O)Nc1cccc(O)c1
-14.8% | Cc1ccc(N(C)C(=O)N2CCN(c3ccccn3)CC2)cc1
-6.1% | c1ccc(N=P(c2nc3ccccc3o2)(N2CCOCC2)N2CCOCC2)cc1
-1.8% | N#Cc1ccccc1CSc1nc2ccsc2c(=O)n1Cc1ccccn1
-7.1% | CCOC(=O)c1c(C)[nH]c(C)c1C(=O)COC(=O)c1c(OC)cccc1OC
-0.3% | Cc1c(NC(=O)c2cc(CC(C)C)on2)c(=O)n(-c2ccccc2)n1C
-9.3% | Cc1ccc(S(=O)(=O)/N=C(\c2ccccc2)N(C)S(=O)(=O)c2ccccc2)cc1
-25.9% | O=C(O)c1ccc(CS(=O)c2cccc(C(F)(F)F)c2)o1 (configuration not stated)
-0.3% | CC(C)C(=O)NCCc1nc2ccccc2n1CCOc1ccccc1
0.0% | CC(C)C(NC(=O)OCc1ccccc1)C(=O)O (configuration not stated)
28.2µM* | COc1ccccc1/C=C1\NC(=S)N(CC2CCCO2)C1=O (configuration not stated)
-12.0% | COc1ccc(NC(=O)C2CCCN(S(=O)(=O)c3ccc(C)cc3)C2)cc1OC (configuration not stated)
-4.3% | CCCOc1ccc(C(=O)NC(=S)Nc2nc3ccccc3s2)cc1
3.4% | NNC1=N[C@H]2CS(=O)(=O)C[C@H]2S1
-1.5% | CCN(c1ccccc1)S(=O)(=O)c1cc(C(=O)Nc2ccccc2Cl)ccc1F
-15.6% | O=C1NCCCC1C(=O)NCCNC(=O)C(F)(F)F (configuration not stated)
-19.8% | O=C(c1cccs1)n1nc(-c2ccc(Cl)cc2)nc1NCc1ccco1
-3.7% | Cn1c(=O)c2c(nc(N3CCCCCC3)n2CC(=O)c2ccc(Br)cc2)n(C)c1=O
-0.9% | Nc1ncnc2c1[nH]c(=O)n2C1OC(CO)C(O)C1O (configuration not stated)
? | Cc1nn(CC(=O)NCc2cccc3ccccc23)c(=O)c2ccccc12
-14.6% | O=C(NC1=NCCS1)c1ccncc1
-5.2% | CC(C)(C)NC(=O)COC(=O)CNC(=O)c1cc(Cl)cc([N+](=O)[O-])c1
-6.4% | COc1ccc(C(=O)CC(Nc2ccc([N+](=O)[O-])cc2)c2ccc(Cl)cc2)cc1 (configuration not stated)
-7.5% | CCc1cccc(OCCCN2C(=O)NC(C)(C)C2=O)c1
-11.6% | Cc1cc(C(=O)N/N=C/C=C/c2ccccc2)c(C)o1

With a hit mark in HPGD block, among the entries above:
HPGD block | compound
12.6µM* | COc1ccc(-c2[nH]nc3c2C(c2ccoc2)C(C#N)=C(N)O3)cc1 (configuration not stated)
7.94µM* | Cc1ccc2nc(SCC(=O)NCc3ccco3)c(C#N)cc2c1
28.2µM* | COc1ccccc1/C=C1\NC(=S)N(CC2CCCO2)C1=O (configuration not stated)

The list goes on:
HPGD block | compound
-2.9% | C=CCn1c(SCc2csc(C)n2)nc2sc3c(c2c1=O)CCC(C)C3 (configuration not stated)
-4.0% | CC(C)OC(=O)CN1C(=O)C(=O)c2ccccc21
? | CCOc1cc(S(=O)(=O)N2CC=C(c3ccc(F)cc3)CC2)c(OCC)cc1-n1cnnn1
-12.6% | COc1cccc(OCCNc2cc(Cl)ccc2[N+](=O)[O-])c1
-10.8% | O=C(Cn1cncn1)NCc1cccc2ccccc12
-14.4% | COCCN(Cc1cc2cc3c(cc2n2nnnc12)OCO3)C(=O)c1ccccc1F
? | CC1=C(C(=O)N2CCOCC2)C(c2ccccc2F)C2=C(CCCC2=O)N1 (configuration not stated)
-16.9% | COc1ccccc1-c1c(C(F)(F)F)oc2cc(OS(C)(=O)=O)ccc2c1=O
-3.8% | COC(=O)c1ccc(C(NC(=O)OCc2ccccc2)/C(C)=C/[C@@H](C)C(=O)NCc2cccnc2)cc1 (some centres not stated)
-20.1% | O=c1sc(Nc2ccccc2)nc2ccsc12
-6.0% | O=C(NCc1ccncc1)Nc1ccccc1Cl
-7.6% | COc1ccc(C(=O)N/N=C/C(C)c2ccccc2)cc1OC (configuration not stated)
-9.8% | COC(=O)C1CCN(C(=O)COC(=O)Cc2c[nH]c3ccccc23)CC1
1.1% | Fc1cccc(Cl)c1CSc1nnc(CN2CCOCC2)n1-c1ccccc1
2.0% | O=C(Nc1ccccc1)N(Cc1cccs1)C1CCCC1
-8.4% | CC(C(=O)c1ccc(-c2ccccc2)cc1)[n+]1ccccc1 (configuration not stated)
-10.7% | CCCCCCCCS(=O)C1CCS(=O)(=O)C1 (configuration not stated)
-4.7% | COC(=O)c1cn(NC(=O)C2CCC(C(C)(C)C)CC2)c(=O)c2ccccc12 (configuration not stated)
? | COc1ccccc1NC(=O)CCCc1c[nH]c2ccccc12
-5.7% | CC(C)(C)NS(=O)(=O)c1ccc(CCC(=O)Nc2ccc3c(c2)OCO3)cc1
-6.7% | CCOc1ccc(Br)cc1S(=O)(=O)Nc1cccc(S(=O)(=O)N(C)C)c1
-14.5% | Cn1cccc1C(=O)N1CCC2(CCN(Cc3ccc(C#N)cc3)CC2)CC1
-19.6% | C=CCn1c(COc2ccc3c(c2)CCCC3)nnc1SCC(=O)Nc1cccc(SC)c1
-6.5% | CCOC(=O)N1CCC(NC(=O)CCc2c(C)nc3c(c(C)nn3C(C)(C)C)c2C)CC1
17.8µM* | CCOC(=O)C1CCN(c2nc3ccccc3nc2C(C#N)C(=O)NCCc2ccccc2)CC1 (configuration not stated)
11.2µM* | CC1CCCCN1C(=O)Cc1ccc(Cl)cc1 (configuration not stated)
-23.5% | Cc1cc(S(=O)(=O)NC2CCCC2)ccc1F

In another format: entries from further up
SMILES: COc1ccccc1NC(=O)CCCc1c[nH]c2ccccc12
- HPGD block: ?
SMILES: CC(C)(C)NS(=O)(=O)c1ccc(CCC(=O)Nc2ccc3c(c2)OCO3)cc1
- HPGD block: -5.7%
SMILES: CCOc1ccc(Br)cc1S(=O)(=O)Nc1cccc(S(=O)(=O)N(C)C)c1
- HPGD block: -6.7%
SMILES: Cn1cccc1C(=O)N1CCC2(CCN(Cc3ccc(C#N)cc3)CC2)CC1
- HPGD block: -14.5%

The list is partial (hit frequency here may not be typical).
